FGF22 binding – shifts melting point of recombinant human FGF22. Q9HCT0. hit rate 1.5% among 340,000. calls only at 9.99 µM. recombinant FGF22 thermal shift, SYPRO orange fluorescence; percent of sucrose octasulfate shift, DMSO zero;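 active = melting point raised past a set limit in the mean and every replicate; three in four hits are not shown here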
Target sequence (Q9HCT0 whole entry, looked up): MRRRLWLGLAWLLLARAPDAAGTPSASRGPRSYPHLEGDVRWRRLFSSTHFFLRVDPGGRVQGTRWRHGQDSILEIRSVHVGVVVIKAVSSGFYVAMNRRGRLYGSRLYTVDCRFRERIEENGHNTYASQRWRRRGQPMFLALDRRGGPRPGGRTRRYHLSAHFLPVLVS
MLL AF4-AF9 inh – MLL-AF4/AF9 protein interaction inhibition. P42568. AlphaScreen, biotin-AF4 peptide binding to FLAG-AF9. inhibition, % at 10 µM. hit rate 0.47% among 350,000. AID 651704;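 active = every replicate reaching a set inhibition limit, whatever the replicate mean, cut at about 25% in these data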;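 also: 0% = plate neutral control median and 100% = total signal loss; the record names both 10 and 1 µM as test concentration; the first replicate is given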
Target sequence (P42568 whole entry, looked up): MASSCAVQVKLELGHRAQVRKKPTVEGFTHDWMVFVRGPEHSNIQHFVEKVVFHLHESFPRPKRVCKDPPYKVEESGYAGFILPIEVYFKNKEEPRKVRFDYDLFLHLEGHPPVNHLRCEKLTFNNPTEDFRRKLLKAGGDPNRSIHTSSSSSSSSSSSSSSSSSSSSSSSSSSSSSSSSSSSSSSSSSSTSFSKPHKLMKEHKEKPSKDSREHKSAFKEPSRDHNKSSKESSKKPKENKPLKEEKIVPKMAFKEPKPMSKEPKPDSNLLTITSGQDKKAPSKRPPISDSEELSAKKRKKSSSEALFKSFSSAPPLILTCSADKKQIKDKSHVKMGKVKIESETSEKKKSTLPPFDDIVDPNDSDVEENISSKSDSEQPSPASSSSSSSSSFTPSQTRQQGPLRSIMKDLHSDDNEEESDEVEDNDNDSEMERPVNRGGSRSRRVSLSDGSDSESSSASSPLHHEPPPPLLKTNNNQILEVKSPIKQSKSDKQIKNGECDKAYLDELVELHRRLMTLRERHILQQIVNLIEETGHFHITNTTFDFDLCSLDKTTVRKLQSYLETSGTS
A1 inh – inhibitors of the anti-apoptotic protein A1, read as caspase activation. caspase activation, % (no concentration beside the values). AID 2462. MEF A1-2A-BIM cells, Caspase-Glo 3/7 luminescence, 3 h; percent of clofoctol response, vehicle zero. hit rate 0.066% among 330,000;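 active = over half of replicate activation scores above 10%, or exactly half above 10 with the replicate mean above 10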;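 also: wells of about 30 µL received 50 nL stock; many hits fall short of the cut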
Ecoli rRNA inh – inhibitors of bacterial rRNA selective over humanized ribosomes | E. coli WT GFP vs humanized-ribosome RFP mutants, fluorescence, 24 h; hits give low values; DMSO median 0, no signal -100 | GFP signal change (wild-type ribosome), % (concentration not given with the values) | hit rate 1.6% among 350,000;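 active = significant combined selectivity score with lowered wild-type GFP, culture density cut under 30%, mutant RFP and density less affected; inactive = any of these conditions unmet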; also: one replicate is shown; some compounds called inactive have numbers as strong as hits
UCH37 inh – blocks the human deubiquitinase UCH37. inhibition, % (no concentration beside the values). Q9Y5K5. AID 588478. hit rate 0.33% among 330,000. purified proteasome/UCH37, Ub-AMC cleavage fluorescence;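 active = mean of two replicates above 20%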;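 also: 0% = compound-free wells with enzyme and 100% = wells lacking proteasome; stock transfer was 100 nL into about 20 µL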
Target sequence (Q9Y5K5 whole entry, looked up): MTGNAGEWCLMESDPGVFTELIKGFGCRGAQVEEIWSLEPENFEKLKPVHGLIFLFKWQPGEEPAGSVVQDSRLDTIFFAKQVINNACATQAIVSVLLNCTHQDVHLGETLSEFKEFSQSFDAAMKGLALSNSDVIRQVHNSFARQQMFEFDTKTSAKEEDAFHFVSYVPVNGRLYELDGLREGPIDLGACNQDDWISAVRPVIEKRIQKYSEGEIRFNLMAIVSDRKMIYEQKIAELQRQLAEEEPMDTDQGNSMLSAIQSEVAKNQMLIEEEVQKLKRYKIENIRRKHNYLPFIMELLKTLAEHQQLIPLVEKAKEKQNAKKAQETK
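Test system – human UCH37 enzyme supplied as purified proteasome complex · Incubation – 30 min preincubation with enzyme, 25 min cleavage at room temperature · Detection – AMC fluorescence from Ub-AMC cleavage, excitation 355 nm, emission 460 nm · Benchmarks – no-proteasome wells (full inhibition) and compound-free wells (no inhibition)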
Beta cell apopt – blocks beta cell apoptosis; protection from apoptosis, % (no concentration beside the values); INS-1E cytokine-induced death, ATP luminescence, 48 h; percent of positive-control rescue, neutral wells zero; hit rate 0.8% among 300,000;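 active = all replicates at 75% or more, or half of them and the mean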;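 also: 0% = cytokine-treated negative control wells and 100% = positive control rescue; higher means more ATP so stronger rescue from cytokine killing; wells of about 40 µL received 100 nL stock; the first replicate is given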
Ecoli growth – blocks Escherichia coli growth; OD600, 23 h; hits give low values; OD600 absorbance (test concentration not listed); hit rate 0.21% among 330,000; AID 1053175;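 active = OD600 absorbance below the run mean of sample wells minus 3.6 SD, in any replicate, cut at about 0.56 in these data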;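 also: stock transfer was 300 nL into about 60 µL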
T cruzi inh – T. cruzi replication inhibition. T. cruzi beta-gal in NIH3T3, luminescence, 90 h. hit rate 1.4% among 300,000. inhibition, % (concentration not given with the values);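 active = mean inhibition across valid replicates above about 55%, limit read from the data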;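 also: signal also drops with host cell toxicity which is not excluded here; 0% = plate median of DMSO wells and 100% = zero luminescence signal; higher percent means less beta-gal luminescence so fewer parasites; stock transfer was 50 nL into about 50 µL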
Ecoli rRNA inh OD600 – second read-out of Ecoli rRNA inh, no call of its own (marks repeat the call); OD600 change, %; measured here: OD600 growth;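 optical density of the mix in the first replicate; 0 = DMSO median and -100 = no signal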
Ecoli rRNA inh RFP – recorded beside Ecoli rRNA inh, whose call it bears; RFP signal change, %; measured here: RFP humanized mutant strains;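 first replicate; 0 = DMSO median and -100 = no signal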
An asterisk follows results filed as active. The list is partial. The share of hits here may be higher or lower than overall.

Results for CC1(C)C(=O)Nc2ccccc2N1C(=O)COc1ccc(C#N)cc1 ?
FGF22 binding: inactive; MLL AF4-AF9 inh: 1.1; A1 inh: 0.1; Ecoli rRNA inh: -2; UCH37 inh: -0.6; Beta cell apopt: 1; Ecoli growth: 0.69; Ecoli rRNA inh OD600: 5; Ecoli rRNA inh RFP: -2.8

Results for O=C(CSc1oc(-c2ccco2)nc1S(=O)(=O)c1ccc(F)cc1)NCC1CCCO1 (stereo not given) ?
A1 inh: 0.0; UCH37 inh: 0.5; Beta cell apopt: -3; Ecoli growth: 0.68; T cruzi inh: -6

Results for COCCN(C(=O)COC(=O)CNC(=O)c1cccs1)c1c(N)n(Cc2ccccc2)c(=O)[nH]c1=O ?
FGF22 binding: inactive; MLL AF4-AF9 inh: -1.8; A1 inh: -1.0; Ecoli rRNA inh: 2; UCH37 inh: 3.4; Beta cell apopt: -4; Ecoli growth: 0.7; T cruzi inh: -4; Ecoli rRNA inh OD600: -1; Ecoli rRNA inh RFP: -3.0

How did CCN(C(=O)CN1C(=O)/C(=C/c2ccccc2)SC1=S)C1CCS(=O)(=O)C1 (stereo not given) do in these assays?
FGF22 binding: inactive; MLL AF4-AF9 inh: 1.0; A1 inh: 0.4; Ecoli rRNA inh: 4; UCH37 inh: 8.9; Beta cell apopt: -11; Ecoli growth: 0.7; T cruzi inh: 1; Ecoli rRNA inh OD600: 4; Ecoli rRNA inh RFP: -1.1

What do the screens show for `Cc1cc(S(=O)(=O)c2cc3ccc(O)c(C)c3oc2=O)ccc1F`?
FGF22 binding: inactive; MLL AF4-AF9 inh: -3.0; A1 inh: 0.0; Ecoli rRNA inh: -24; UCH37 inh: inactive; Beta cell apopt: -2; Ecoli growth: 0.66; T cruzi inh: -12; Ecoli rRNA inh OD600: -34; Ecoli rRNA inh RFP: -0.3

What do the screens show for `C/C(N)=C(/C#N)C(=O)CSc1nncn1-c1ccccc1`?
FGF22 binding: inactive; MLL AF4-AF9 inh: 4.1; A1 inh: -0.1; Ecoli rRNA inh: 12; UCH37 inh: 2.2; Beta cell apopt: -1; Ecoli growth: 0.68; T cruzi inh: 4; Ecoli rRNA inh OD600: 3; Ecoli rRNA inh RFP: -4.5

How did CCc1cc(Cn2nc(-c3ccccc3)cc2C(=O)NCCOC)on1 do in these assays?
FGF22 binding: inactive; MLL AF4-AF9 inh: -11; A1 inh: 0.1; Ecoli rRNA inh: -2; UCH37 inh: 4.3; Beta cell apopt: 3; Ecoli growth: 0.69; T cruzi inh: -16; Ecoli rRNA inh OD600: -1; Ecoli rRNA inh RFP: 0.3

How did O=C(COC(=O)c1ccc(NS(=O)(=O)c2cccs2)cc1)NCC1CCCO1 (stereo not given) do in these assays?
FGF22 binding: inactive; MLL AF4-AF9 inh: -1.2; A1 inh: 0.1; Ecoli rRNA inh: -2; UCH37 inh: 2.5; Beta cell apopt: -2; Ecoli growth: 0.72; T cruzi inh: 4; Ecoli rRNA inh OD600: 1; Ecoli rRNA inh RFP: 2.8

Results for COc1ccccc1NC(=O)Nc1cc(F)ccc1F ?
FGF22 binding: inactive; MLL AF4-AF9 inh: -2.8; A1 inh: -1.7; Ecoli rRNA inh: 1; UCH37 inh: -31; Beta cell apopt: 0; Ecoli growth: 0.67; T cruzi inh: 9; Ecoli rRNA inh OD600: 3; Ecoli rRNA inh RFP: -2.3

Results for Cc1ccc2nc(C)cc(Nc3ccc([N+](=O)[O-])cc3)c2c1 ?
FGF22 binding: inactive; MLL AF4-AF9 inh: 3.8; A1 inh: 0.2; Ecoli rRNA inh: 10; UCH37 inh: 1.0; Ecoli growth: 0.63; T cruzi inh: -46; Ecoli rRNA inh OD600: 9; Ecoli rRNA inh RFP: -3.0

How did O=C(CSCc1ccccc1)Nc1ccccc1 do in these assays?
FGF22 binding: inactive; MLL AF4-AF9 inh: -2.5; A1 inh: -1.9; Ecoli rRNA inh: 4; UCH37 inh: 2.0; Ecoli growth: 0.68; T cruzi inh: -9; Ecoli rRNA inh OD600: -2; Ecoli rRNA inh RFP: -1.3

What do the screens show for `c1cncc(-c2nc(NCc3cccs3)c3ccccc3n2)c1`?
FGF22 binding: inactive; MLL AF4-AF9 inh: -1.4; A1 inh: -0.6; Ecoli rRNA inh: 4; UCH37 inh: -8.3; Beta cell apopt: -4; Ecoli growth: 0.73; T cruzi inh: 48; Ecoli rRNA inh OD600: 9; Ecoli rRNA inh RFP: 9.8

What do the screens show for `O=C(O)/C(CC(=O)c1ccc(Cl)cc1)=N/Nc1ccc([N+](=O)[O-])cc1[N+](=O)[O-]`?
MLL AF4-AF9 inh: 3.1; A1 inh: -0.5; Ecoli rRNA inh: -8; Beta cell apopt: 8; T cruzi inh: 4; Ecoli rRNA inh OD600: -5; Ecoli rRNA inh RFP: -0.7

Results for CC(=O)c1ccc(COC(=O)Cc2ccc([N+](=O)[O-])cc2)cc1 ?
MLL AF4-AF9 inh: -15; A1 inh: -0.4; Ecoli rRNA inh: 11; UCH37 inh: 3.4; Ecoli growth: 0.67; T cruzi inh: -10; Ecoli rRNA inh OD600: 4; Ecoli rRNA inh RFP: -3.0

What do the screens show for `Cn1c(=O)oc2cc(S(=O)(=O)N3CCCC(C(=O)NCCN4CCOCC4)C3)ccc21` (stereo not given)?
FGF22 binding: inactive; MLL AF4-AF9 inh: 4.3; A1 inh: 0.4; Ecoli rRNA inh: 3; UCH37 inh: 2.6; Ecoli growth: 0.71; Ecoli rRNA inh OD600: 4; Ecoli rRNA inh RFP: -3.2

In the list so far, these contain fluorine:
Results for O=C(CSc1oc(-c2ccco2)nc1S(=O)(=O)c1ccc(F)cc1)NCC1CCCO1 (stereo not given) ?
A1 inh: 0.0; UCH37 inh: 0.5; Beta cell apopt: -3; Ecoli growth: 0.68; T cruzi inh: -6

What do the screens show for `Cc1cc(S(=O)(=O)c2cc3ccc(O)c(C)c3oc2=O)ccc1F`?
FGF22 binding: inactive; MLL AF4-AF9 inh: -3.0; A1 inh: 0.0; Ecoli rRNA inh: -24; UCH37 inh: inactive; Beta cell apopt: -2; Ecoli growth: 0.66; T cruzi inh: -12; Ecoli rRNA inh OD600: -34; Ecoli rRNA inh RFP: -0.3

Results for COc1ccccc1NC(=O)Nc1cc(F)ccc1F ?
FGF22 binding: inactive; MLL AF4-AF9 inh: -2.8; A1 inh: -1.7; Ecoli rRNA inh: 1; UCH37 inh: -31; Beta cell apopt: 0; Ecoli growth: 0.67; T cruzi inh: 9; Ecoli rRNA inh OD600: 3; Ecoli rRNA inh RFP: -2.3

The list goes on.
Results for O=C(NC1CCN(C(=O)Nc2ccccc2Cl)CC1)c1ccco1 ?
FGF22 binding: inactive; MLL AF4-AF9 inh: 0.4; A1 inh: -0.1; Ecoli rRNA inh: -4; UCH37 inh: 5.2; Beta cell apopt: -2; Ecoli growth: 0.63; T cruzi inh: -9; Ecoli rRNA inh OD600: -12; Ecoli rRNA inh RFP: 1.4

Results for O=C(Cc1ccc(-n2cccc2)cc1)NC1CCCCCC1 ?
A1 inh: -0.2; UCH37 inh: -0.3; Beta cell apopt: 5; Ecoli growth: 0.73; T cruzi inh: 27

Results for CCC(C)c1ccccc1N1CC(C(=O)NCCCn2nc(C)cc2C)CC1=O (stereo not given) ?
FGF22 binding: inactive; MLL AF4-AF9 inh: -0.5; A1 inh: 0.9; Ecoli rRNA inh: 4; UCH37 inh: 0.4; Beta cell apopt: 0; Ecoli growth: 0.7; Ecoli rRNA inh OD600: 2; Ecoli rRNA inh RFP: -0.3

Results for CC(c1ccccc1)N1C(=O)CC(Sc2ncccc2C(=O)O)C1=O (stereo not given) ?
FGF22 binding: inactive; MLL AF4-AF9 inh: 1.3; A1 inh: 0.1; Ecoli rRNA inh: 6; UCH37 inh: 2.0; Beta cell apopt: -1; Ecoli growth: 0.71; T cruzi inh: -15; Ecoli rRNA inh OD600: 2; Ecoli rRNA inh RFP: -4.6

How did CCCC[C@@H]1CCCO[C@@](C(=O)NCc2ccccn2)(C(F)(F)F)C1 do in these assays?
FGF22 binding: inactive; MLL AF4-AF9 inh: -0.8; A1 inh: 0.5; Ecoli rRNA inh: -17; UCH37 inh: 1.7; Beta cell apopt: -3; T cruzi inh: -2; Ecoli rRNA inh OD600: -33; Ecoli rRNA inh RFP: -3.1

Results for O=C1C(=O)N(CCCn2ccnc2)C(c2cccc(Br)c2)/C1=C(\O)c1ccc2c(c1)OCCO2 (stereo not given) ?
FGF22 binding: inactive; MLL AF4-AF9 inh: -3.7; A1 inh: -0.2; Ecoli rRNA inh: 2; UCH37 inh: 8.7; Beta cell apopt: -9; Ecoli growth: 0.66; T cruzi inh: -15; Ecoli rRNA inh OD600: 5; Ecoli rRNA inh RFP: 0.7

Results for CCCCNC(=O)c1cc2ccccc2s1 ?
FGF22 binding: inactive; MLL AF4-AF9 inh: -2.7; A1 inh: -1.7; Ecoli rRNA inh: -5; UCH37 inh: 1.0; Beta cell apopt: -4; Ecoli growth: 0.65; T cruzi inh: -7; Ecoli rRNA inh OD600: -8; Ecoli rRNA inh RFP: -2.8

Results for CCOc1ccc(NC(=O)c2cc3c(=O)n(C)c4ccccc4c3n2C)cc1 ?
FGF22 binding: inactive; MLL AF4-AF9 inh: -0.4; A1 inh: -0.1; Ecoli rRNA inh: -5; UCH37 inh: -103; Beta cell apopt: -2; Ecoli growth: 0.77; T cruzi inh: 26; Ecoli rRNA inh OD600: -8; Ecoli rRNA inh RFP: -3.6

Results for COc1cccc(-c2nc(CS(=O)(=O)CC(=O)Nc3ccc(C(C)=O)cc3)c(C)o2)c1 ?
FGF22 binding: inactive; MLL AF4-AF9 inh: -2.6; A1 inh: 0.4; Ecoli rRNA inh: 7; UCH37 inh: 2.7; Beta cell apopt: 8; Ecoli growth: 0.67; T cruzi inh: 6; Ecoli rRNA inh OD600: 12; Ecoli rRNA inh RFP: 3.4

Results for O=C(CCN1CCN(c2ccccc2F)CC1)Nc1ccc2c(c1)OCO2 ?
A1 inh: -0.4; UCH37 inh: 0.2; Beta cell apopt: 4; Ecoli growth: 0.7; T cruzi inh: 12

What do the screens show for `Cc1ccc(NC(=O)CN2CCC(C(=O)c3ccc(F)cc3)CC2)cc1`?
A1 inh: 0.7; UCH37 inh: 2.4; Beta cell apopt: 1; Ecoli growth: 0.67; T cruzi inh: 16

How did COC(=O)c1[nH]c2ccc(Br)cc2c1NC(=O)CN1CCCCC1CCO (stereo not given) do in these assays?
A1 inh: 0.8; UCH37 inh: 1.4; Beta cell apopt: -1; Ecoli growth: 0.76; T cruzi inh: 0

How did CC1Sc2ccc(S(=O)(=O)N3CCC(C(=O)Nc4cccc(Cl)c4)CC3)cc2NC1=O (stereo not given) do in these assays?
FGF22 binding: inactive; MLL AF4-AF9 inh: -1.3; A1 inh: -0.9; Ecoli rRNA inh: 14; UCH37 inh: 5.1; Beta cell apopt: 42; Ecoli growth: 0.7; T cruzi inh: 26; Ecoli rRNA inh OD600: -36; Ecoli rRNA inh RFP: 13

Assay outcomes deposited in PubChem BioAssay by several laboratories.
